D2 agonist: agonists of human D2 dopamine receptor (beta-arrestin). DiscoveRx PathHunter D2 beta-arrestin, luminescence, 90 min; 100% = 57 uM dopamine signal. actives 0.084% (n = 360,000). P14416. AID 624465. activation, % (no concentration beside the values); in the data active = activation above about 40%; inconclusive = about 15% to 40%; inactive = below about 15%; further: compound concentration not given in the record; the text of the record calls up to 30% inactive
Target sequence (P14416 whole entry, looked up): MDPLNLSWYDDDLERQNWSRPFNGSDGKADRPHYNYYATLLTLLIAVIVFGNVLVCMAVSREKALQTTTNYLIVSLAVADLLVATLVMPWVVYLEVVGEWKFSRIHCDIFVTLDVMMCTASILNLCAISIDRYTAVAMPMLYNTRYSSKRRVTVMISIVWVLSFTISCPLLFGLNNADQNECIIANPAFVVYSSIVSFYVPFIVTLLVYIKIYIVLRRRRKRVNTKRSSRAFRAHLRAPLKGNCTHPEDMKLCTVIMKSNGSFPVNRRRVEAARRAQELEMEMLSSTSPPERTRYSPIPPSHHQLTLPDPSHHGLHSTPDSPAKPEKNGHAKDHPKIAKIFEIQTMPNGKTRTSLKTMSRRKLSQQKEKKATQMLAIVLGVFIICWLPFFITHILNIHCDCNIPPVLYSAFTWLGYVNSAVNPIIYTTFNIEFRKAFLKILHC
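DiscoveRx PathHunter D2 beta-arrestin cells (2,100/well) attached overnight, then compound-stimulated 90 min at 37 C in HBSS/10 mM HEPES/0.1% Tween-20 buffer; beta-galactosidase complementation read by luminescence after 1 h at ambient temperature. Dopamine 57 uM final (EC100) as control.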
TRPML1 agonist: human mucolipin-1 channel agonism; Q9GZU1; TRPML1-expressing cells, Ca2+ dye fluorescence, FDSS; host cell line not named in the record; reference of the full effect not given here; activation, % (concentration not given with the values); actives 0.12% (n = 410,000); AID 624414; in the data active = activation above about 50%; inconclusive = about 30% to 50%; inactive = below about 30%; further: 0% is about no effect; the text of the record puts the active cut at 80%
Target sequence (Q9GZU1 whole entry, looked up): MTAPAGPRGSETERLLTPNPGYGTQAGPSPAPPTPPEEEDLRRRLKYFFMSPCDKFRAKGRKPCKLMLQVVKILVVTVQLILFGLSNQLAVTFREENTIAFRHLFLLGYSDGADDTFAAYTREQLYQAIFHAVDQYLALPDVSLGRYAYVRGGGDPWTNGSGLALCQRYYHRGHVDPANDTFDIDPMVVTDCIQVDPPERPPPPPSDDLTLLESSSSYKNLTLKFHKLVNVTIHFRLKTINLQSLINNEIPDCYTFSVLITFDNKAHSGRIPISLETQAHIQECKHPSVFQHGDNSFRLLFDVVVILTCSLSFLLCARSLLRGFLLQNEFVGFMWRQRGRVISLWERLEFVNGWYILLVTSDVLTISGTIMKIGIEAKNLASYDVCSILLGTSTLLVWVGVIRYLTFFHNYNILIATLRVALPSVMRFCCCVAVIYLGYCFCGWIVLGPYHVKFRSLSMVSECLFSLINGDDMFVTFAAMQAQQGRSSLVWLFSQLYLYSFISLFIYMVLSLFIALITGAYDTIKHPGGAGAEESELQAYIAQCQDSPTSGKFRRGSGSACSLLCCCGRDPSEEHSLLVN
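Tetracycline-induced TRPML1-DL cells are seeded and incubated overnight before loading with a no-wash Ca2+ dye and quencher. Agonist activity is taken from the 110 s fluorescence read following compound pin-transfer on an FDSS, before EC80 54-4 challenge.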
CtBP-E1A inh: CtBP/E1A binding inhibition. AlphaScreen GST-E1A/His-CtBP binding, 1536-well; stronger effect = lower value; control for the full effect not named in the record. activity change, % (concentration not given with the values). actives 0.49% (n = 340,000). AID 651724; in the data active means activity change below about -65%; inconclusive means about -30% to -65%; inactive means above about -30%; further: on the % scale 0 is the no-effect control and ±100 the full control effect
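In 5 uL wells, 23 nL compound meets equimolar GST-E1A and His-CtBP (5X stock 125 nM each) for 2 h, 37 °C. Beads (5X, 50 ug/mL) then 1 h, 37 °C, dark.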
Six1-Eya2 blk: inhibitors of human Six1/Eya2 interaction; Q15475+O00167; AlphaScreen GST-Six1/His-Eya2 binding, biochemical; stronger effect = lower value; control for the full effect not named in the record; activity change, % (test concentration not listed); actives 0.56% (n = 360,000); AID 651725; in the data active = activity change below about -65%; inconclusive = about -30% to -65%; inactive = above about -30%; further: on the % scale 0 is the no-effect control and ±100 the full control effect; compound concentration not given in the record
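Six1/Eya2 binding was read as AlphaScreen signal after compounds were pinned into GST-Six1 plus His-tagged Eya2 (5X stock 250/500 nM) in pH 8.0 Tris/NaCl/TCEP buffer, beads added, then incubated 1 h, 37 C, dark.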
D2 PAM: potentiates the human D2 dopamine receptor allosterically; potentiation, % (concentration not given with the values); P14416; AID 624464; actives 0.23% (n = 360,000); DiscoveRx D2 beta-arrestin cells, luminescence, 90 min; 100% = 57 uM dopamine signal; active = potentiation of 50% or more; inconclusive = 30% to 50%; inactive = 30% or less;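 further: compound concentration not given in the record; tested on top of an EC20 dose of dopamine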
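PathHunter beta-arrestin assay in DiscoveRx D2 cells. Compounds were added with an EC20 of dopamine (50 nM final) for 90 min at 37 deg C. Luminescence was read 1 h after detection reagent, with 57 uM dopamine as the EC100 control.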
PINK1 expr mod: changes PINK1 expression; PINK1 immunofluorescence, high-content cytometry, 24 h; Potency, µM (titrated, usually from 76.6 µM), without a hit: at the highest dose activation (PINK1 increase), usual class: activators; actives 0.2% (n = 410,000); AID 624263; active = well fitted activation curve with a large enough effect; inconclusive = small, poorly fitted or top-dose-only effect; inactive = flat fitted curve, though single readings scatter; cell line not stated here;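 further: potency means the concentration at half of the fitted maximal effect; % of control where 0% means no effect; nearly all actives have a fitted effect of over 65% in size; a mitochondrial uncoupler was the plate control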
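Measures PINK1 amount and localization on or inside mitochondria by immunofluorescence. Stable cells get compounds at 5 concentrations for 24 hours before fixation and staining; CCCP controls included.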
An asterisk follows results filed as active; ? = inconclusive; . = not tested or not shown; & = joins results of further samples; [ ] = another dose, or the depositor's remark.

1. CCN(CC)C(=O)[C@H]1C[C@H](CC(=O)NCc2cccc(C(F)(F)F)c2)C(=O)N2CCc3c([nH]c4cc(-c5ccco5)ccc34)[C@]12C
2. Cc1ccc(OCCn2c(=O)sc3ccccc32)cc1
3. Nc1nc(N)c2nc(-c3ccccc3)c(N)nc2n1
4. COc1cc(C2C(C(C)=O)=C(O)C(=O)N2Cc2ccccc2)ccc1O (configuration not stated)
5. Cc1ccccc1-n1nnnc1-c1ccccc1
6. COc1ccc(C2(c3ccc(OC)cc3)NC(=O)N(CC(=O)Nc3ccc(OC(F)F)cc3)C2=O)cc1

Screen / compound no.,1,2,3,4,5,6
Six1-Eya2 blk,-17,-14,0,4,0,4
PINK1 expr mod,3.9%,9.4%,-0.6%&-0.3%&-0.6%,0.0%,16%[38.3 µM],-1.3%
D2 agonist,3.8,-0.7,1.4,-3.2,-3.0,-0.5
D2 PAM,0,-14,-9,-6,-9,18
CtBP-E1A inh,-26,44,-4,13,6,-6
TRPML1 agonist,2.4,2.3,-0.1&0.3,-0.3,-0.2,3.1

7. O=C(CCNC(=O)C1CCN(S(=O)(=O)c2ccc(F)cc2)CC1)NCc1ccccc1Cl
8. COc1ccc(/C=C2\SC(N)=NC2=O)cc1Br
9. O=C(Nc1ccc(N2CCCC2)cc1)c1cc(Cl)ccc1Cl
10. CCc1cc(C(=O)Nc2cc(Cl)ccc2N2CCN(C)CC2)sc1C
11. COCCCNCCCCOc1c(Cl)cc(C)cc1Br
12. Cc1ccccc1OCCn1c(=S)[nH]c2ccccc21

Screen / compound no.,7,8,9,10,11,12
Six1-Eya2 blk,-6,-21,-21,3,1,-4
PINK1 expr mod,-0.4%,7.5%,13%,7.1%,0.3%,3.8%
D2 agonist,-4.6,1.5,3.1,0.1,-4.1,6.1
D2 PAM,-5,0,-1,-68,-7,-4
CtBP-E1A inh,.,-10,.,-17,3,-3
TRPML1 agonist,-0.7,-1.5,-1.4,3.4,-0.9,0.5

Three entries from above, arranged by the number in D2 PAM, largest number first:
| # | Molecule | D2 PAM |
| --- | --- | --- |
| 8 | COc1ccc(/C=C2\SC(N)=NC2=O)cc1Br | 0 |
| 11 | COCCCNCCCCOc1c(Cl)cc(C)cc1Br | -7 |
| 10 | CCc1cc(C(=O)Nc2cc(Cl)ccc2N2CCN(C)CC2)sc1C | -68 |

Later entries.
13. Cc1c(NC(=O)C2(c3ccc(Cl)cc3)CCCC2)c(=O)n(-c2ccccc2)n1C
14. COc1ccc(C(C)=O)cc1CN1C(=O)NC2(CCCCCCC2)C1=O
15. CN(c1ncc(C(F)(F)F)cc1Cl)N1C(=O)c2cccc([N+](=O)[O-])c2C1=O
16. Nc1cc(S(=O)(=O)N2CCOCC2)ccc1N1CCOCC1
17. O=C1COc2ccc(C(=O)COc3ccc([N+](=O)[O-])cc3)cc2N1
18. O=C(NCc1ccccc1)C(c1ccc(F)cc1)N(C(=O)c1csnn1)C1CC1 (configuration not stated)

Screen / compound no.,13,14,15,16,17,18
Six1-Eya2 blk,8,0,7,5,9,12
PINK1 expr mod,.,0.1%,-0.2%,0.2%,4.7%,0.5%
D2 agonist,-0.2,-1.7,0.4,5.4,-5.4,2.4
D2 PAM,-12,-4,-12,-1,-2,-4
CtBP-E1A inh,7,3,2,.,5,-2
TRPML1 agonist,1.3,-1.0,0.4,0.6,-0.3,0.2

19. CCOC(=O)Cn1c(-c2nonc2NC(=O)c2ccccc2F)nc2ccccc21
20. COc1ccc(Cl)cc1N1CCN(CCNC(=O)Nc2ccccc2C)CC1
21. CC(C)(C)C(=O)CC1(O)C(=O)N(Cc2ccc(Cl)cc2)c2ccccc21 (configuration not stated)
22. O=c1c2ccccc2nc(-c2ccccc2)n1O
23. Cc1n[nH]c(=O)n1-c1ccc(C(C)C)cc1
24. CCCCN(C)Cc1c(C(=O)N2CCc3ccccc3C2)nc2ccc(Cl)cn12

Screen / compound no.,19,20,21,22,23,24
Six1-Eya2 blk,-3,-20,-2,-6,-2,23
PINK1 expr mod,9.8%,6.2%,-2.6%,0.2%,-0.3%,-0.1%
D2 agonist,-3.1,-6.1,-1.3,-7.3,-1.6,-2.7
D2 PAM,-22,-44,1,0,-3,-17
CtBP-E1A inh,4,-15,-1,.,0,-2
TRPML1 agonist,0.6,0.0,1.9,0.8,-0.6,-0.8

25. O=C(O)c1ccccc1C(=O)OCCc1cc2ccccc2c(=O)o1
26. CCOC(=O)C1(C(N)=O)OC1(c1ccc(Cl)cc1)c1ccccc1Cl (configuration not stated)
27. CCc1noc(C)c1C(=O)Nc1ccccc1N1CCOCC1
28. COc1ccc(-c2cc(C#N)nc(NN)n2)cc1
29. O=C(O)c1ccc(/C=C2\SC(=S)N(NC(=O)c3ccccc3)C2=O)cc1
30. COC(=O)c1ccc(NC(=O)c2ccc3c(c2)C(=O)N(Cc2cccnc2)C3=O)cc1

Screen / compound no.,25,26,27,28,29,30
Six1-Eya2 blk,-9,-4,-3,-18,-22,-9
PINK1 expr mod,-0.2%,-1.3%,-1.3%,1.1%,3.3%,-0.3%
D2 agonist,-3.4,0.0,-0.3,-2.6,-5.2,-0.6
D2 PAM,-16,-4,7,-8,-4,3
CtBP-E1A inh,1,3,-3,0,.,2
TRPML1 agonist,-0.6,0.8,0.3,-0.3,-0.7,0.4

Ordered by count of non-hydrogen atoms (rising): part of the list above
28. COc1ccc(-c2cc(C#N)nc(NN)n2)cc1
27. CCc1noc(C)c1C(=O)Nc1ccccc1N1CCOCC1
25. O=C(O)c1ccccc1C(=O)OCCc1cc2ccccc2c(=O)o1

Screen / compound no.,28,27,25
Six1-Eya2 blk,-18,-3,-9
PINK1 expr mod,1.1%,-1.3%,-0.2%
D2 agonist,-2.6,-0.3,-3.4
D2 PAM,-8,7,-16
CtBP-E1A inh,0,-3,1
TRPML1 agonist,-0.3,0.3,-0.6

(list continues)
31. O=C(NCC1COc2ccccc2O1)c1cccs1 (configuration not stated)
32. COc1cc(/C=C2\SC(=S)N(CCC(=O)N3CCCCC3)C2=O)cc(OC)c1OC
33. COc1ccc(-n2nc(C(=O)NCC(=O)Nc3cc(OC)c(OC)c(OC)c3)c3ccccc3c2=O)cc1
34. Cc1ccc(S(=O)(=O)NN=C(c2ccccc2)c2cccs2)cc1
35. CCCOc1ccc(N)cc1N
36. CC1(C)NC(=O)N(CCCC(=O)Nc2ccc(C(F)(F)F)cc2)C1=O

Screen / compound no.,31,32,33,34,35,36
Six1-Eya2 blk,4,-12,-15,11,-13,-2
PINK1 expr mod,1.4%,-0.7%,1.7%,2.2%,18%,0.8%
D2 agonist,-3.9,-1.0,?,-5.9,15,-5.9
D2 PAM,-10,-4,18,-9,66*,-5
CtBP-E1A inh,-1,1,3,3,-15,.
TRPML1 agonist,-0.4,-0.5,-0.1,-0.4,0.5,-0.6

Overlap with the part before: 2 entries, then new ones.
35. CCCOc1ccc(N)cc1N
36. CC1(C)NC(=O)N(CCCC(=O)Nc2ccc(C(F)(F)F)cc2)C1=O
37. CCC1c2ccc(C)n2CCN1C(=O)Nc1ccccc1OC (configuration not stated)
38. COCCN(CC(=O)Nc1cccc(C)c1C)C(=O)c1oc2c(Cl)cccc2c1C
39. Cc1cc2nccc(-c3ccccn3)n2n1
40. CCCc1ccc(OCc2ccc(C(=O)N3CCSCC3)o2)cc1
41. COc1ccc(NC(=O)CC2SC(N3CCCCC3)=NC2=O)cc1OC (configuration not stated)
42. CCOc1cc(/C=N/NC(=O)c2cccnc2)ccc1O

Screen / compound no.,35,36,37,38,39,40,41,42
Six1-Eya2 blk,-13,-2,-7,0,-2,4,2,-13
PINK1 expr mod,18%,0.8%,0.2%,7.1%,-1.3%,6.9%,-0.4%,0.2%
D2 agonist,15,-5.9,-2.6,1.1,-4.7,8.3,-2.0,-7.6
D2 PAM,66*,-5,-3,10,-9,-6,-16,3
CtBP-E1A inh,-15,.,3,-2,4,17,.,-9
TRPML1 agonist,0.5,-0.6,0.7,1.6,-0.5,4.1,-0.4,-0.4

43. Cc1ccc(C)c(NS(=O)(=O)c2ccc(-c3coc(C)n3)cc2)c1
44. CC(=O)Nc1cccc2c1C(=O)N(c1cccc(OC(C)=O)c1)C2=O
45. CCOC(=O)N1CCC(NC(=O)C2CCN(C(=O)N3CC(C)Oc4ccccc43)CC2)CC1 (configuration not stated)
46. CN(C)Cc1ccc(F)cc1Sc1ccc(Cl)cc1Cl
47. CCN(CC)CCCn1c(SCC(=O)NCC2CCCO2)nc2ccccc2c1=O (configuration not stated)
48. COc1ccc2[nH]c3c(c2c1)CN(C)CC3

Screen / compound no.,43,44,45,46,47,48
Six1-Eya2 blk,1,-7,4,-2,1,-4
PINK1 expr mod,-0.4%,2.3%,-4.3%,?,-3.3%,5.7%[38.3 µM]
D2 agonist,-0.3,0.0,1.4,-3.1,-7.1,-4.6
D2 PAM,-15,-7,0,-13,-18,-14
CtBP-E1A inh,3,.,-1,-21,5,-2
TRPML1 agonist,-0.1,-0.1,-0.4,3.6,0.8,-0.6

49. CC(C)CN(CC(C)C)C(=O)Nc1cccc([N+](=O)[O-])c1
50. CCN(CC)c1ccc(S(=O)(=O)N2CCOCC2)cc1NC(=O)COC(=O)/C=C/c1ccccc1
51. O=c1c(CN2CCN(Cc3ccccc3)CC2)coc2ccc(Cl)cc12
52. CC(C)(C)C(=O)Nc1ccc(C(=O)CSc2nnc(C3CC3)n2C2CC2)cc1
53. N#CC1(NC(=O)COC(=O)c2ccccc2SCC(=O)N2CCCC2)CCCCC1
54. COc1ccc(C(C)=O)cc1CSc1nnc2c(Cl)cc(Cl)cn12
55. CCOC(=O)c1sc(NC(=O)c2cc(-c3cccc(O)c3)on2)c(C(=O)OCC)c1C
56. Cc1ccc(Cn2cc(CN3CC(N4CCCCC4)CS3(=O)=O)nn2)cc1 (configuration not stated)

Screen / compound no.,49,50,51,52,53,54,55,56
Six1-Eya2 blk,0,-4,0,3,3,1,4,4
PINK1 expr mod,0.3%,0.6%,1.6%[38.3 µM],-1.1%,-2.8%,-1.4%,3.6%,-0.4%
D2 agonist,1.5,?,-3.1,5.2,-3.1,2.9,-3.6,.
D2 PAM,-2,23,-12,0,-7,-13,-6,.
CtBP-E1A inh,4,.,-3,12,6,-9,3,6
TRPML1 agonist,0.3,3.0,0.5,-0.3,0.6,-0.4,-0.3,-0.5
